Bead autofluor – compound fluorescence in toxin protease inhibitor counterscreen | compound autofluorescence counterscreen, microsphere flow cytometry; active compounds read high | fluorescence intensity (test concentration not listed) | 360,000 compounds, 3.1% hits | AID 624483;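 active means at least 3 SD above the mean of all compounds, about 16000 in these data; inconclusive means too few beads counted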;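 further: 100 nL of 1 mM stock went into each well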
Mtb hypoxia inh – PubChem AID 1159583. fluorescence inhibition, % (concentration not given with the values). 300,000 compounds, 0.1% hits. M. tuberculosis hypoxia-regulated fluorescent reporter, fluorescence;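 active means 35 to 45% if threefold the growth effect, above 45% if 1.5-fold the growth effect; inactive means the rest, general growth blockers included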;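 further: wells of about 50 µL received 100 nL stock; 0% = vehicle wells and 100% = reference inhibitor wells; whole bacteria with a GFP reporter of the hypoxia response; strong numbers were not always called active; many hits fall short of the cut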
BJeLR viability – MLPCN primary cell-based screen for lethality selective to Ras in HRASV12 cells. BJeLR (HRASV12) viability, CellTiter-Glo ATP luminescence, 48 h; reference of the scale not given here. inhibition, % (no concentration beside the values). 300,000 compounds, 0.17% hits;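 active means replicate mean above 50%; inconclusive means above 50% but judged a plate artefact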;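 further: 50 nL library stock added to about 25 µL; numbers are from one replicate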
PrP UTR inh – inhibition of PrP 5' UTR reporter expression; 340,000 compounds, 0.35% hits; cell-based PrP 5' UTR mRNA reporter, plate reader; inhibition, % (concentration not given with the values);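 active means every replicate at 50% or more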;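 further: 0 = median of the neutral control wells; tested in H4 reporter cells; numbers are from one replicate; inactives centre near -14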
RN4220 kill – growth inhibition of S. aureus RN4220, primary screen, OD600; 16 h; inhibition, % (concentration not given with the values); 330,000 compounds, 0.33% hits; AID 1259311, 2017;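 active means z-score of -3 or lower and OD600 up to 0.18 on both plates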;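 further: plate controls were untreated cells for no effect and reference antibiotic for full effect; stock transfer was 100 nL into about 80 µL; one replicate is shown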
Sa ugtP lethal – growth inhibition of ugtP-null S. aureus, primary screen, RN4220 ugtP deletion, OD600; 16 h; some inactives read as strong as hits; growth inhibition, % (concentration not given with the values); 330,000 compounds, 0.54% hits;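 active means z-score under -3 and OD600 up to 0.15 on both plates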;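 further: plate controls were untreated wells for no effect and antibiotic for full effect; wells of about 80 µL received 100 nL stock; the first replicate is given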
Mtb hypoxia inh growth – also measured in Mtb hypoxia inh; calls as there; growth inhibition, %; measured here: M. tuberculosis growth (absorbance);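 0% = vehicle and 100% = reference antibiotic; read after six days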
* = called active by the depositor. No enrichment for hits (roughly 4% active in at least one column).

COc1ccc(C(CNC(=O)c2oc3ccc(Cl)cc3c2C)N2CCCCC2)cc1 (configuration not stated) was read as Mtb hypoxia inh 0, BJeLR viability -5, PrP UTR inh -21, RN4220 kill -2.3, Sa ugtP lethal -17 and Mtb hypoxia inh growth 3.
`COc1nc(-c2ccccc2)ccc1-c1noc(C)n1` gave Bead autofluor inconclusive, Mtb hypoxia inh -4, PrP UTR inh -29, RN4220 kill 9.1, Sa ugtP lethal 4 and Mtb hypoxia inh growth 8.
Screening Cc1nc2scc(C)n2c(=O)c1S(=O)(=O)N1CCN(c2ccccc2)CC1 returned Bead autofluor 4073, Mtb hypoxia inh 1, BJeLR viability -10, PrP UTR inh -12, RN4220 kill 0.4, Sa ugtP lethal 15 and Mtb hypoxia inh growth 4.
For COc1ccccc1CCc1nnc(CCC(=O)N(C)Cc2cccc3cnccc23)o1 the results were Bead autofluor 2011, Mtb hypoxia inh 12, BJeLR viability -5, PrP UTR inh -42, RN4220 kill 6.6, Sa ugtP lethal 5 and Mtb hypoxia inh growth 0.
COc1ccc(CNC(=O)CN(C)S(=O)(=O)c2ccc3c(c2)c(=O)n(C)c(=O)n3C)cc1 was read as Bead autofluor 6684, Mtb hypoxia inh 7, BJeLR viability 3, PrP UTR inh -5, RN4220 kill 1.8, Sa ugtP lethal 3 and Mtb hypoxia inh growth -2.
Screening O=C(NCCCN1CCOCC1)NC1CCCCC1 returned Bead autofluor 2842, BJeLR viability -7, PrP UTR inh 7, RN4220 kill -0.9 and Sa ugtP lethal 0.
Screening CCCCC(=O)Nc1cc2nn(-c3ccc(OC)cc3)nc2cc1C returned Bead autofluor 9743, Mtb hypoxia inh 1, BJeLR viability 8, PrP UTR inh -126, RN4220 kill -1.6, Sa ugtP lethal 0 and Mtb hypoxia inh growth -13.
For O=C1C(=O)N(Cc2ccco2)C(c2cccc(Cl)c2)/C1=C(\O)c1ccc2c(c1)OCCO2 (configuration not stated) the results were Bead autofluor 2891, Mtb hypoxia inh 23, BJeLR viability 1, PrP UTR inh -7, RN4220 kill 4.1, Sa ugtP lethal -3 and Mtb hypoxia inh growth 6.
`O=C(NC(Cc1c[nH]c2ccccc12)C(=O)O)c1ccc(Br)cc1` (configuration not stated) gave Bead autofluor 2115, Mtb hypoxia inh 2, BJeLR viability -6, PrP UTR inh 5, RN4220 kill 1.8, Sa ugtP lethal 2 and Mtb hypoxia inh growth 2.
For Cc1csc(NC(=O)CCCc2cccs2)n1 the results were Bead autofluor 4078, Mtb hypoxia inh -10, BJeLR viability 4, PrP UTR inh -11, RN4220 kill 9.9, Sa ugtP lethal 6 and Mtb hypoxia inh growth 8.
For COc1ccc(CCn2c(SCC(=O)Nc3cc(C)on3)nc3ccccc3c2=O)cc1OC the results were Bead autofluor 9724, Mtb hypoxia inh -17, BJeLR viability -3, PrP UTR inh -6, RN4220 kill 3.2, Sa ugtP lethal -10 and Mtb hypoxia inh growth -1.
Screening COc1ccc(CN2CCN(CCC(C)C)C(CCO)C2)cc1Cn1cncn1 (configuration not stated) returned Bead autofluor 2193, Mtb hypoxia inh 9, BJeLR viability 0, PrP UTR inh -22, RN4220 kill 2.6, Sa ugtP lethal 9 and Mtb hypoxia inh growth 6.
For CC(C)c1nc(SCC(=O)N2CCCc3ccccc32)c2c(=O)n(C)c(=O)n(C)c2n1 the results were Bead autofluor 6390, Mtb hypoxia inh -1, BJeLR viability 2, PrP UTR inh -23, RN4220 kill 2.7, Sa ugtP lethal 17 and Mtb hypoxia inh growth -2.
For CCc1ccccc1N(C)S(=O)(=O)c1ccc2[nH]cc(C(=O)O)c(=O)c2c1 the results were Bead autofluor 4042, Mtb hypoxia inh -6, BJeLR viability 3, PrP UTR inh 1, RN4220 kill -2.3, Sa ugtP lethal 6 and Mtb hypoxia inh growth -13.
COc1ccccc1NC(=O)CSc1nncn1-c1cccnc1 was read as Bead autofluor 10886, Mtb hypoxia inh 11, BJeLR viability -2, PrP UTR inh -9, RN4220 kill 6.0, Sa ugtP lethal 14 and Mtb hypoxia inh growth 0.
Screening CCC1=C(OC(=O)N(CC)CC)N2C(=O)OC(=NCCc3c[nH]c4ccccc34)[C@]2(C)C2C1=CCC1C(=O)N(CC)C(=O)C12 (some centres not stated) returned Mtb hypoxia inh -1, RN4220 kill 9.2, Sa ugtP lethal 5 and Mtb hypoxia inh growth 10.
`COc1ccc(S(=O)(=O)NCc2ccncc2)cc1NC(=O)c1ccccc1C` gave Bead autofluor 6214, Mtb hypoxia inh 14, BJeLR viability 9, PrP UTR inh 1, RN4220 kill 1.7, Sa ugtP lethal 3 and Mtb hypoxia inh growth 3.
Screening CC(C)COC(=O)CCNc1n[nH]c(=O)[nH]c1=O returned Bead autofluor 3892, Mtb hypoxia inh 11, BJeLR viability 18, PrP UTR inh -8, RN4220 kill 0.1, Sa ugtP lethal 2 and Mtb hypoxia inh growth 7.
`CC(C)(C)c1nnc(NC(=O)CCS(=O)(=O)Cc2ccccc2)s1` gave Bead autofluor 6013, Mtb hypoxia inh 2, BJeLR viability -6, PrP UTR inh -16, RN4220 kill 1.9, Sa ugtP lethal 11 and Mtb hypoxia inh growth 7.
Screening Cc1cc(S(=O)(=O)Nc2ccc(F)cc2)c(C)s1 returned Bead autofluor 8105, Mtb hypoxia inh 10, BJeLR viability -8, PrP UTR inh -6, RN4220 kill 7.5, Sa ugtP lethal -6 and Mtb hypoxia inh growth -5.
CCCC(CCC)C(=O)OC1C[C@H]2CC[C@@H](C1)[N+]2(C)C (some centres not stated) was read as Bead autofluor 5408, BJeLR viability -9 and PrP UTR inh -16.
For O=C(Nc1cccc(-c2cn3c(n2)SCC3)c1)c1ccc2ccccc2n1 the results were Bead autofluor 3827, Mtb hypoxia inh 13, BJeLR viability 1, PrP UTR inh -42, RN4220 kill 6.2, Sa ugtP lethal 9 and Mtb hypoxia inh growth 2.
For CC(=O)c1ccccc1NS(=O)(=O)c1ccc2c(c1)CC(=O)N2 the results were Bead autofluor 3841, Mtb hypoxia inh 6, PrP UTR inh -12, RN4220 kill 3.9, Sa ugtP lethal 0 and Mtb hypoxia inh growth 4.
`COc1ccc(/C=N/NC(=O)c2cc(-c3ccccc3OC)nc3ccccc23)cc1COC(C)=O` gave Bead autofluor 4241, BJeLR viability -5 and PrP UTR inh 7.
Screening CC(C)Oc1ccc(CSc2ncn[nH]2)cc1 returned Bead autofluor 3332, Mtb hypoxia inh 3, BJeLR viability -1, PrP UTR inh -21, RN4220 kill 2.2, Sa ugtP lethal 5 and Mtb hypoxia inh growth 2.
For COc1ccc(CCNC(=O)CN(c2cccc([N+](=O)[O-])c2)S(C)(=O)=O)cc1 the results were Bead autofluor 4744, Mtb hypoxia inh -5, BJeLR viability 9, PrP UTR inh -32, RN4220 kill 2.1, Sa ugtP lethal 3 and Mtb hypoxia inh growth -5.
O=c1[nH]c(CN2CCN(c3ccccc3Cl)CC2)nc2ccsc12 was read as Bead autofluor 4205, BJeLR viability -2, PrP UTR inh -10, RN4220 kill 3.6 and Sa ugtP lethal 9.
Screening COc1cccc(-n2c(SCc3ccccn3)nc3c(c2=O)SCC3)c1 returned Bead autofluor 3679, Mtb hypoxia inh 7, BJeLR viability -6, PrP UTR inh -14, RN4220 kill 19, Sa ugtP lethal 23 and Mtb hypoxia inh growth 2.
N#Cc1c(NC(=O)C2C3C=CC(C3)C2C(=O)O)sc2c1CCCCC2 (configuration not stated) was read as Bead autofluor 2083, Mtb hypoxia inh 3, BJeLR viability 5, PrP UTR inh -16, RN4220 kill 3.6, Sa ugtP lethal -1 and Mtb hypoxia inh growth 0.
Screening Cc1ccccc1NC(=O)CN1C(=O)S/C(=C\c2cccn2-c2cccc(C(=O)O)c2)C1=O returned Bead autofluor 2487, BJeLR viability -3, PrP UTR inh -30, RN4220 kill -2.9 and Sa ugtP lethal -5.
`COc1ccc(N2C(=O)C(Cl)=C(Oc3cccc(OC)c3)C2=O)cc1` gave Bead autofluor 1990, Mtb hypoxia inh 12, PrP UTR inh -6, RN4220 kill 7.2, Sa ugtP lethal 12 and Mtb hypoxia inh growth 3.
Cc1cccc(NC(=O)/C(C#N)=C/c2ccc(Sc3ccccc3)o2)c1C was read as Bead autofluor 2489, Mtb hypoxia inh -1, BJeLR viability -8, PrP UTR inh -4, RN4220 kill 1.4, Sa ugtP lethal 1 and Mtb hypoxia inh growth 5.
`O=C(CCC1(C(=O)O)CCC(=O)NC1)NCc1ccccc1` (configuration not stated) gave Bead autofluor 10307, Mtb hypoxia inh 14, BJeLR viability 10, PrP UTR inh -40, RN4220 kill 7.4, Sa ugtP lethal 3 and Mtb hypoxia inh growth 6.
CN(C)C(/C=C/Nc1ccccc1F)=C(C#N)C#N was read as Bead autofluor 4524, Mtb hypoxia inh 1, BJeLR viability -4, PrP UTR inh -53, RN4220 kill 2.0, Sa ugtP lethal -8 and Mtb hypoxia inh growth 2.
For O=C(CC1NCCc2ccccc21)Nc1cccc(Cl)c1 (configuration not stated) the results were Bead autofluor 6549, Mtb hypoxia inh -8, BJeLR viability 9, PrP UTR inh -67, RN4220 kill 1.2, Sa ugtP lethal -3 and Mtb hypoxia inh growth 4.
Screening CCn1c2ccccc2c2cc(Nc3cc(C)nc4ncnn34)ccc21 returned Bead autofluor 5592, Mtb hypoxia inh 11, BJeLR viability 35, PrP UTR inh 68*, RN4220 kill 0.3, Sa ugtP lethal -1 and Mtb hypoxia inh growth 9.
Screening Cc1ccccc1CSCCNS(C)(=O)=O returned Bead autofluor 17003*, Mtb hypoxia inh 10, BJeLR viability 6, PrP UTR inh -7, RN4220 kill 1.8, Sa ugtP lethal 13 and Mtb hypoxia inh growth 7.
Cc1cc(C)n(CC(=O)NNC(=O)CCNC(=O)c2ccccc2Cl)n1 was read as Mtb hypoxia inh 3, BJeLR viability 5, PrP UTR inh -2, RN4220 kill 1.7, Sa ugtP lethal 9 and Mtb hypoxia inh growth 1.
O=C(COC(=O)c1ccccc1Cl)Nc1nccs1 was read as Bead autofluor 5546, Mtb hypoxia inh 12, BJeLR viability 17, PrP UTR inh -33, RN4220 kill 2.9, Sa ugtP lethal 1 and Mtb hypoxia inh growth 6.
Screening O=c1c(Cc2ccc(F)cc2)c(O)ccn1CCc1ccccn1 returned Bead autofluor 4543, Mtb hypoxia inh 11, BJeLR viability 0, PrP UTR inh -22, RN4220 kill 0.6, Sa ugtP lethal 9 and Mtb hypoxia inh growth 3.
Screening Cc1ccccc1-n1c(SC/C(O)=C(\C#N)c2nc3ccccc3[nH]2)nnc1-c1ccncc1 returned Bead autofluor 4931, BJeLR viability -13 and PrP UTR inh -23.

An excerpt from above in order of molecular weight, lowest first.
CN(C)C(/C=C/Nc1ccccc1F)=C(C#N)C#N was read as Bead autofluor 4524, Mtb hypoxia inh 1, BJeLR viability -4, PrP UTR inh -53, RN4220 kill 2.0, Sa ugtP lethal -8 and Mtb hypoxia inh growth 2.
Screening Cc1ccccc1CSCCNS(C)(=O)=O returned Bead autofluor 17003*, Mtb hypoxia inh 10, BJeLR viability 6, PrP UTR inh -7, RN4220 kill 1.8, Sa ugtP lethal 13 and Mtb hypoxia inh growth 7.
For O=C(CC1NCCc2ccccc21)Nc1cccc(Cl)c1 (configuration not stated) the results were Bead autofluor 6549, Mtb hypoxia inh -8, BJeLR viability 9, PrP UTR inh -67, RN4220 kill 1.2, Sa ugtP lethal -3 and Mtb hypoxia inh growth 4.
Cc1cccc(NC(=O)/C(C#N)=C/c2ccc(Sc3ccccc3)o2)c1C was read as Bead autofluor 2489, Mtb hypoxia inh -1, BJeLR viability -8, PrP UTR inh -4, RN4220 kill 1.4, Sa ugtP lethal 1 and Mtb hypoxia inh growth 5.
Screening Cc1ccccc1-n1c(SC/C(O)=C(\C#N)c2nc3ccccc3[nH]2)nnc1-c1ccncc1 returned Bead autofluor 4931, BJeLR viability -13 and PrP UTR inh -23.

2 compounds drawn at random from the list so far, as already listed:
`COc1ccc(N2C(=O)C(Cl)=C(Oc3cccc(OC)c3)C2=O)cc1` gave Bead autofluor 1990, Mtb hypoxia inh 12, PrP UTR inh -6, RN4220 kill 7.2, Sa ugtP lethal 12 and Mtb hypoxia inh growth 3.
O=C(COC(=O)c1ccccc1Cl)Nc1nccs1 was read as Bead autofluor 5546, Mtb hypoxia inh 12, BJeLR viability 17, PrP UTR inh -33, RN4220 kill 2.9, Sa ugtP lethal 1 and Mtb hypoxia inh growth 6.

Screening results (PubChem)
